From PubChem
LANA-H2A inh = blocks KSHV LANA binding to histone H2A/H2B; inhibition, % (concentration not given with the values); 0.6% of 320,000 active; cell-free LANA-H2A/H2B peptide, fluorescence polarization; in the data active = inhibition mostly above about 10%, no sharp cut-off; inactive = mostly below about 6.7%;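 note: stock transfer was 7.5 nL into about 10 µL; 0% = median of vehicle wells and 100% = median of positive control wells; one replicate is shown; the record names a cut of 25% in any replicate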
Bfl-1 A1 inh = inhibitors of the anti-apoptotic protein A1, read as caspase activation; MEF A1-2A-BIM cells, Caspase-Glo 3/7 luminescence, 3 h; percent of clofoctol response, vehicle zero; caspase activation, % (test concentration not listed); 0.066% of 330,000 active;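 active = over half of replicate activation scores above 10%, or exactly half above 10 with the replicate mean above 10; inconclusive = replicate mean below 10 yet half the replicates above 10; inactive = over half of replicates below 10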;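 note: wells of about 30 µL received 50 nL stock; many hits fall short of the cut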
Ecoli rRNA inh = inhibits bacterial ribosomal RNA function over humanized ribosomes | GFP signal change (wild-type ribosome), % (test concentration not listed) | AID 720706 | E. coli WT GFP vs humanized-ribosome RFP mutants, fluorescence, 24 h; active compounds read low; DMSO median 0, no signal -100 | 1.6% of 350,000 active;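 active = significant combined selectivity score with lowered wild-type GFP, culture density cut under 30%, mutant RFP and density less affected; inactive = any of these conditions unmet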; note: one replicate is shown; some compounds called inactive have numbers as strong as hits
Beta apoptosis = beta cell apoptosis inhibition; INS-1E cytokine-induced death, ATP luminescence, 48 h; percent of positive-control rescue, neutral wells zero; protection from apoptosis, % (test concentration not listed); 0.8% of 300,000 active;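 active = all replicates at 75% or more, or half of them and the mean; inconclusive = half reach 75% but not the mean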;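 note: 0% = cytokine-treated negative control wells and 100% = positive control rescue; higher means more ATP so stronger rescue from cytokine killing; wells of about 40 µL received 100 nL stock; the first replicate is given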
T cruzi inh = T. cruzi replication inhibition; T. cruzi beta-gal in NIH3T3, luminescence, 90 h; inhibition, % (test concentration not listed); 1.4% of 300,000 active; AID 1885;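 active = mean inhibition across valid replicates above about 55%, limit read from the data; inconclusive = mean below that limit but half or more replicates reach it; inactive = mean below it, under half of replicates reach it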;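 note: signal also drops with host cell toxicity which is not excluded here; 0% = plate median of DMSO wells and 100% = zero luminescence signal; higher percent means less beta-gal luminescence so fewer parasites; stock transfer was 50 nL into about 50 µL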
Calb FLC = C. albicans growth modulation with fluconazole; 0.57% of 300,000 active; C. albicans CaCi-2 (fluconazole-resistant clinical isolate) + fluconazole, Alamar Blue growth, 48 h; growth inhibition, % (no concentration beside the values);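 active = most replicates above 75%; inconclusive = exactly half above 75%; inactive = most below 75%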;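 note: all wells also contain fluconazole at 8 µg/ml as a sub-toxic cotreatment; 0% = median of DMSO wells and 100% = median of geldanamycin control wells; wells of about 8 µL received 7.5 nL stock; the first replicate is given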
ALR H2O2 inh = human ALR oxidase inhibition via reduced H2O2; P55789; purified ALR, DTT oxidation, H2O2 HRP-luminol luminescence; inhibition, % (concentration not given with the values); 3.8% of 290,000 active; AID 485317;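 active = mean and each replicate at 75% or more; inconclusive = only one of the two met; inactive = neither met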;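 note: stock transfer was 7.5 nL into about 7.5 µL; 0% = neutral wells and 100% = wells with inactivated enzyme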
Target sequence (P55789 whole entry, looked up): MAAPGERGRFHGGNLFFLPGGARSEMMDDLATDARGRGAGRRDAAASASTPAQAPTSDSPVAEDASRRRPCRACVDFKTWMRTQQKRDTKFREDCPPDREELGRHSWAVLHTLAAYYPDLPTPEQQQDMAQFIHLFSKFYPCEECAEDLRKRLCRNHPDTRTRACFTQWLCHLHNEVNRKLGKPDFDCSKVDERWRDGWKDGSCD
B2AR ag = activates human beta-2 adrenergic receptor causing internalization; 0.43% of 340,000 active; Am2.2-beta2AR cells, FAP receptor internalization, flow cytometry; reference of the scale not given here; P07550; AID 504454; response, % (concentration not given with the values);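 active = response above a set limit, near 3 SD of response in nonfluorescent compounds, cut at about 42% in these data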;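 note: stock transfer was 100 nL into about 11 µL; a reference agonist was the positive control; negative values mostly stem from fluorescent compounds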
Target sequence (P07550 whole entry, looked up): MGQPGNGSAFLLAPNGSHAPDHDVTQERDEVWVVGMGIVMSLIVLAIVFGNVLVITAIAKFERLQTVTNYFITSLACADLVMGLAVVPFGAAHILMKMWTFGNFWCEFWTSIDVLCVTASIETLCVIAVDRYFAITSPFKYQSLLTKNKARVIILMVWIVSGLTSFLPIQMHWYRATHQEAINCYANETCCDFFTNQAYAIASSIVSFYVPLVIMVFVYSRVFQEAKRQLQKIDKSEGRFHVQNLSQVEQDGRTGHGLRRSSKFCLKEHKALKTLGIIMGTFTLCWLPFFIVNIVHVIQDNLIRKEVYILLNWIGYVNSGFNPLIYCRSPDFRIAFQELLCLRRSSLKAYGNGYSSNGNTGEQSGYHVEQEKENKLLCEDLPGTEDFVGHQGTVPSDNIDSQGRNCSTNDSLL
Ecoli rRNA inh OD600 = recorded beside Ecoli rRNA inh, whose call it bears; OD600 change, %; measured here: OD600 growth;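 optical density of the mix in the first replicate; 0 = DMSO median and -100 = no signal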
Ecoli rRNA inh RFP = second read-out of Ecoli rRNA inh, no call of its own (marks repeat the call); RFP signal change, %; measured here: RFP humanized mutant strains;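 first replicate; 0 = DMSO median and -100 = no signal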
The depositor's hits bear a star; ? = inconclusive; · = no result given.

| compound | LANA-H2A inh | Bfl-1 A1 inh | Ecoli rRNA inh | Ecoli rRNA inh OD600 | Ecoli rRNA inh RFP | Beta apoptosis | T cruzi inh | Calb FLC | ALR H2O2 inh | B2AR ag |
| --- | --- | --- | --- | --- | --- | --- | --- | --- | --- | --- |
| CCC(=O)c1cn(CC(=O)Nc2cc(C)ccc2C)c2ccccc12 | 2.3 | 0.0 | 10 | 10 | 0.1 | -2 | 2 | -1 | -1 | 4 |
| O=C(Nc1ccccc1)Nc1ccc(Br)c(Cl)c1 | -1.8 | -3.3 | · | · | · | 59 | 34 | 46 | -4 | 6 |
| O=C(NNc1c(F)c(F)cc(F)c1F)c1cc2ccccc2oc1=O | 2.3 | -0.8 | -6 | 8 | -1.2 | -9 | -10 | -12 | · | -3 |
| Cc1oc(-c2cccc(Cl)c2)nc1CS(=O)(=O)CC(=O)NCCCN1CCOCC1 | -0.3 | 0.0 | 6 | 12 | -1.1 | -3 | -15 | -6 | 48 | -4 |
| O=C(CSC(=S)N1CCCC1)NCC(=O)Nc1ccc(F)c(F)c1 | 1.1 | 0.1 | 25 | 11 | 1.6 | -5 | -5 | -2 | -2 | 2 |
| CCOc1ccc(NC(=S)NCc2ccco2)cc1 | 1.1 | -0.6 | -19* | 1.2* | 2.1* | -5 | 15 | -13 | 10 | 1 |
| O=S(=O)(N/N=C/c1ccc(N2CCOCC2)cc1)c1ccc(Br)cc1 | 2.5 | 0.2 | 6 | -2 | -4.8 | 5 | -14 | -2 | 61 | 3 |
| O=C(NCc1ccco1)c1cc2ccccc2o1 | -1.3 | -2.6 | · | · | · | -4 | -7 | -4 | 2 | -3 |
| CS(=O)(=O)N1CCSC1c1ccc(Br)cc1 (configuration not stated) | 3.6 | -0.3 | -1 | -1 | -2.4 | -3 | 10 | 12 | -7 | -7 |
| CCOC(=O)N1CCN(S(=O)(=O)c2ccc(C(=O)Nc3nnc(C)o3)cc2)CC1 | 2.0 | 0.2 | 0 | 13 | -6.4 | -3 | 0 | 1 | -4 | -4 |
| CCc1nc2sccc2c(=O)[nH]1 | -1.6 | 1.9 | 0 | 10 | -0.2 | -7 | -3 | -1 | · | -12 |
| COC(=O)C(CCSC)NC(=O)CNS(=O)(=O)c1ccc(Cl)cc1 (configuration not stated) | -0.4 | 0.5 | · | · | · | 3 | 1 | -3 | · | -9 |
| Nn1c(SCc2cn3ccccc3n2)nnc1-c1ccncc1 | 2.5 | -0.3 | 8 | 15 | 0.7 | -5 | -10 | 6 | -1 | 45* |
| CC(=O)c1cnc2nc(C(F)(F)F)nn2c1C | 0.7 | 0.8 | · | · | · | -6 | -1 | ? | 0 | 2 |
| COCCNC(=O)CN1C(=O)CSc2ncccc21 | 5.2 | -0.1 | 9 | 10 | 0.7 | · | -8 | 3 | 95* | -24 |
| COc1ccc(NC(=O)CCCSc2ccccc2)cc1S(N)(=O)=O | 2.5 | 0.3 | -5 | -12 | -1.3 | -4 | -10 | -2 | -6 | 0 |
| CN1CCN(c2ccc(NC(=S)NC(=O)c3cccc4c(Cl)cccc34)cc2)CC1 | 0.1 | 2.0 | -5 | -3 | 4.5 | 12 | 17 | ? | 12 | 26 |
| O=C(CCCCCNC(=O)c1ccccc1Br)N=Nc1c(O)[nH]c2ccccc12 | -1.8 | 0.7 | 0 | 0 | 2.8 | 11 | 1 | 3 | -6 | -2 |
| CC(C)Oc1ccc(C(=O)O)cc1 | -0.8 | -0.4 | 2 | 10 | 3.7 | -3 | 7 | -6 | 4 | -10 |
| CCc1ccc(C(=O)CN2C(=O)C(C)N(c3ccc(C)cc3)C2=O)cc1 (configuration not stated) | -0.1 | -0.4 | 4 | -3 | -5.0 | 1 | -15 | -26 | -18 | 6 |
| CCOC(=O)c1c(CC(C)C)csc1NC(=O)c1ccccc1C(=O)O | -0.6 | ? | -33 | -52 | -2.9 | -6 | 0 | 0 | 37 | 14 |
| O=C(CSc1nnnn1-c1ccc(F)cc1)Nc1nc2ccccc2s1 | 4.3 | 1.7 | · | · | · | -8 | 4 | -2 | -7 | 0 |
| CCn1c(C)nnc1SCC(=O)Nc1ccc(N2CCOCC2)cc1 | 2.9 | 1.2 | 6 | 8 | -1.0 | 2 | -8 | 0 | 88* | 0 |
| O=C(NCCc1ccccc1C(F)(F)F)C1CCC(=O)N(C2CC2)C1 (configuration not stated) | -1.7 | 0.1 | 3 | 8 | -0.5 | · | -7 | -8 | -5 | 1 |
| CCOP(=O)(OCC)C(Nc1ccccc1)c1cccnc1 (configuration not stated) | -1.3 | 1.2 | 9 | 6 | -1.3 | 4 | 6 | -3 | 13 | 3 |
| COc1ccc(C2c3c(ccc4ccccc34)Oc3ncn4nc(-c5ccco5)nc4c32)cc1 (configuration not stated) | 2.4 | 2.6 | · | · | · | -9 | 27 | 1 | -3 | 1 |
| CN1CCN(c2ccccc2NC(=O)c2ccc([N+](=O)[O-])o2)CC1 | -0.3 | -1.7 | · | · | · | · | 32 | 3 | -136 | -6 |
| COc1ccc(C(=O)C2CCCN(S(=O)(=O)c3cccnc3)C2)c(C)c1 (configuration not stated) | 2.0 | 0.4 | -13 | -9 | 0.7 | -1 | 26 | 48 | -11 | 1 |
| Cc1ccc(NC(=O)COC(=O)Cc2ccsc2)cc1S(=O)(=O)N(C)C | -7.8 | -0.4 | 2 | 1 | -1.0 | -8 | -13 | -2 | -13 | -3 |
| Cc1ccc(S(=O)(=O)NCC(=O)N(CC(=O)NCC2CCCO2)c2cccc(F)c2)cc1 (configuration not stated) | -4.8 | -0.1 | 0 | 5 | 1.5 | 0 | -11 | 5 | · | -2 |
| Cc1ccc(C)c(N=C2NC(=O)CS2)c1 | 7.4 | -0.3 | · | · | · | -7 | 2 | -6 | -4 | 9 |
| CCCCOC(=O)C(C)Nc1n[nH]c(=S)[nH]c1=O (configuration not stated) | -0.5 | 0.0 | · | · | · | · | -7 | -1 | 1 | · |
| Cc1ccc(SCC(=O)NC2CC3CCC(C2)N3C)cc1 (configuration not stated) | -0.7 | 0.3 | 6 | 6 | 0.8 | -16 | 6 | -12 | · | -1 |
| Cc1onc(-c2ccccc2)c1C(=O)Oc1cccnc1 | 0.9 | 0.5 | · | · | · | -3 | -2 | 14 | 1 | -15 |
| CC(=O)c1ccc(Cc2ccc(C(C)=O)cc2)cc1 | 3.3 | -0.2 | 5 | 1 | -1.3 | 1 | -1 | 4 | -4 | -10 |
| CCC(OC(=O)CN1C(=O)C(=O)c2ccccc21)C(=O)Nc1ccccc1OC (configuration not stated) | · | · | 3 | 11 | 0.2 | · | -2 | -10 | · | 1 |
| Cc1ccnc(NC(=O)Cn2ccc([N+](=O)[O-])n2)c1 | 0.1 | -0.9 | 0 | -4 | 2.8 | -14 | -7 | -6 | -4 | 0 |
| Cc1cccc2cc(/C=N/Nc3ccc(C(=O)O)cc3)c(Cl)nc12 | -1.9 | -6.8 | -6 | 1 | 5.6 | -23 | 16 | -2 | 5 | 12 |
| CCN(CC(=O)Nc1ccc(NC(C)=O)cc1)C(=O)C1CC(=O)N(CCc2ccc(OC)c(OC)c2)C1 (configuration not stated) | 3.7 | 0.4 | 15 | 24 | -0.2 | -11 | -5 | 0 | -4 | -1 |
| Cc1ccc(CN2CCN(/N=C\c3cccc([N+](=O)[O-])c3)CC2)cc1 | -0.6 | 0.2 | -25* | -10* | -1.4* | -3 | 11 | -20 | -5 | -2 |
| O=C(CCc1ccc(S(=O)(=O)N2CCOCC2)cc1)Nc1ccc(F)c(F)c1F | -8.4 | 0.5 | 6 | 8 | -0.5 | -3 | · | · | -4 | 6 |
| Cc1ccc(/C=N/Nc2cc(C)nc(N3CCOCC3)n2)cc1 | -4.4 | 0.8 | -1 | 14 | -2.6 | 0 | -6 | 5 | 2 | -4 |
| O=C1Nc2ccccc2C(O)(C(=O)N2CCCCC2)N1c1ccccc1 (configuration not stated) | 1.0 | 0.4 | · | · | · | 2 | -30 | 7 | -8 | -4 |
| Cc1ccc(C)c(OC(=O)CN2C(=O)c3ccccc3C2=O)c1 | -1.8 | 0.2 | -5 | 7 | -0.7 | -3 | -6 | 2 | 1 | 5 |
| O=C(NC(=S)N1CCOCC1)c1ccc([N+](=O)[O-])cc1 | -0.2 | 0.7 | · | · | · | -3 | -21 | 4 | -9 | 16 |
| O=C1C=C(NCc2ccccc2)C2(CCCCC2)O1 | -0.2 | -0.1 | · | · | · | -1 | -9 | -25 | -3 | 7 |
| Cc1ccccc1N1CCN(Cc2ccc([N+](=O)[O-])o2)CC1 | -2.3 | -0.6 | -7 | -20 | 8.2 | 0 | 44 | -4 | 16 | -3 |
| C=CCC(=O)NC1CC(C)(C)Cc2c1cnn2-c1ccc(C)cc1 (configuration not stated) | 3.3 | 0.2 | -4 | -8 | -0.9 | · | -10 | -1 | -1 | -4 |
| Cc1sc2ncnc(NCCN3CCOCC3)c2c1C | -3.5 | · | · | · | · | 3 | 5 | 0 | -8 | -4 |
| Cc1ccc(-c2cc(C(=O)N3CCCC3)c3ccccc3n2)s1 | -1.4 | 0.1 | -2 | -10 | 6.2 | -1 | 14 | -7 | -2 | -1 |
| COc1cccc(CNS(=O)(=O)c2cc(CN3C(=O)c4cccnc4C3=O)ccc2OC)c1 | -5.1 | 0.2 | 0 | -1 | 0.1 | -3 | -3 | -9 | -13 | -10 |
| O=C(NCCCN1CCOCC1)c1cc(-c2ccc(F)cc2)nc2ccccc12 | 2.0 | 0.7 | -1 | 5 | -0.5 | -1 | · | · | · | -4 |
| Cc1cc(C)n2nc(C(=O)NCc3ccco3)nc2n1 | -12 | -0.7 | · | · | · | -11 | -4 | -3 | 0 | 5 |
| c1ccc(NC2=NCCN2CCC2CCCCC2)cc1 | -19 | 1.3 | -1 | 0 | 3.1 | -8 | 1 | -21 | 4 | -1 |
| CC(/C=N/NC(=O)c1ccncc1)=C\c1ccc(C(C)C)cc1 | -1.1 | -0.2 | · | · | · | -11 | 15 | 1 | · | 20 |
| CC(C)(C)c1cc(CCC(=O)N2CCNCC2)c(C(C)(C)C)cc1O | -0.8 | -1.2 | · | · | · | 1 | -8 | 8 | -5 | 3 |
| COc1ccc(/C=C/S(=O)(=O)NCc2ccccc2)cc1OC | -4.1 | -0.1 | -17 | -14 | -3.0 | 2 | 14 | -3 | -18 | -5 |
| O=C(NCc1ccccc1Cl)c1cc(C(=O)C2CC2)c[nH]1 | -5.4 | 0.2 | 6 | 7 | 3.1 | 5 | -1 | -8 | -1 | 3 |
| O=C(NCC1CCCO1)C1CCCN(S(=O)(=O)c2cccc3nsnc23)C1 (configuration not stated) | -1.5 | 1.0 | · | · | · | · | -9 | -5 | -3 | 0 |
| CS(=O)(=O)N1CCCC(C(=O)Nc2ccc3c(c2)OCCO3)C1 (configuration not stated) | 5.0 | -0.1 | 7 | 4 | -0.4 | 2 | 6 | -3 | -4 | 3 |

Not all compounds are listed; the hit share may differ from the screen's.
